VACV Venus inh = vaccinia inhibition (Venus reporter); Vaccinia virus Venus reporter expression, fluorescence; AID 720580; actives 0.46% (n = 330,000); Potency, µM (top dose mostly 36.5 µM), without a hit: at the top dose activity change, negative = inhibition, actives largely listed as inhibitors; active means well fitted inhibition curve with a large enough effect; inconclusive means small, poorly fitted or top-dose-only effect; inactive means no such curve, though single readings can be large or run the other way; tested in A549 cells; note: nearly all actives have a fitted effect of over 30% in size; inactives centre near -10
Vaccinia mCherry = vaccinia inhibition (mCherry reporter); actives 0.63% (n = 310,000); Vaccinia virus mCherry reporter infection, fluorescence; about a quarter of the inactives have no number; Potency, µM (highest dose often 36.5 µM), for inactives: top-dose activity change, negative = inhibition, most hits filed as inhibitors; active = well fitted inhibition curve with a large enough effect; inconclusive = small, poorly fitted or top-dose-only effect; inactive = no such curve, though single readings can be large or run the other way; tested in A549 cells; note: nearly all actives have a fitted effect of over 35% in size; inactives centre near -10
Starred values were filed as active, the others as inactive; i = inactive; ? = inconclusive; / = no result given; [ ] = dose if it differs, or a comment. % is set by controls: 0 for no effect and ±100 for the full control effect; potency is the fitted concentration of half-maximal effect.

Order of results – VACV Venus inh | Vaccinia mCherry
CC(=O)c1cccc(NC(=O)CSc2nc(N3CCOCC3)nc(N3CCOCC3)n2)c1
→ -17% | -2%
COc1nc(Oc2ccc(/C=N/O)cc2)nc(N(C)C)n1
→ -4% | -14%
COC1=C[C@@H]2[C@@H]3Cc4ccc(OC)c(O)c4[C@]2(CCN3C)CC1=O
→ -7% | -14%
O=C(CCc1nc(CN2CCN(S(=O)(=O)c3ccc(F)cc3)CC2)no1)N1CCCCC1
→ -7% | -9%
CCn1c(=O)c(=O)[nH]c2c(=O)oc3ccc(S(=O)(=O)Nc4ccc(OC)cc4)cc3c21
→ -8% | -4%
N#CCCn1c(O)c(N=NC(=O)CNC(=O)c2cccs2)c2ccccc21
→ -12% | -12%
Cc1nc(C(=O)N(C)C)nn1-c1ccc([N+](=O)[O-])cc1
→ -4% | -14%
Cc1ccc2cc(C#N)c(N3CCCN(C(=O)c4cnccn4)CC3)nc2c1
→ 3% | -19%
CC(=O)N1CCc2c(sc(NC(=O)c3ccc(S(=O)(=O)N(C)CC4CCCO4)cc3)c2C(N)=O)C1 (stereo not given)
→ -3% | i
O=C(N/N=C/C=C/c1ccccc1)c1ccc(Br)cc1
→ -7% | -7%
CCOC(=O)c1cccc(Nc2ncnc3ccccc23)c1
→ ? | /
Clc1ccc(N/N=C/c2ccncc2)cc1Cl
→ -20% | -2%
Clc1ccc(Cn2cccn2)cn1
→ -5% | 3%
CCOC(=O)CNC(=O)N1[C@H](c2cccs2)[C@@H](C)C(=O)[C@@H](C)[C@@H]1c1cccs1
→ -19% | -4%
CC1(C(=O)NS(=O)(=O)c2ccccc2C(F)(F)F)CCN1C(=O)CC1CCCC1 (stereo not given)
→ 0% | -8%
CCc1nnc(NS(=O)(=O)c2ccc(NC(=O)Nc3ccc(OC)cc3)cc2)s1
→ -2% | -14%
O=C(C1CCCCC1)N(Cc1cccnc1)c1nc2c(F)cccc2s1
→ -11% | -10%
O=C(CCCCC(=O)Nc1ccc(F)cc1F)Nc1ccc(F)cc1F
→ 9% | -10%
CC1Nc2ccccc2C(=O)N1NS(=O)(=O)c1ccccc1 (stereo not given)
→ -4% | i
CCOC(=O)c1ccccc1NC(=O)c1c(-c2ccccc2)noc1C
→ -23% | -14%
CC(C)[C@H](NC(=O)c1ccccc1)C(=O)OCC(=O)NCc1ccc2c(c1)OCO2
→ -16% | -16%
Cc1ccc(N(CC(=O)Nc2ccc3c(c2)OCCO3)S(C)(=O)=O)cc1
→ 1% | i
COc1cccc(OC2(C)CCN(Cc3ccc(-c4ccccn4)cc3)C2)c1 (stereo not given)
→ -12% | 14%
O=C(Nn1c(-c2ccccc2)nc2ccccc2c1=O)C1CCC1
→ -3% | -13%
COc1ccc(NC(=O)NCc2cccn2C)c(OC)c1
→ -6% | /
CC1=CC(=C(C#N)C#N)C=C(C)N1CCN1CCNCC1
→ 5% | -5%
c1csc(CNCCCN2CCOCC2)c1
→ 9% | -17%[1.46 µM]
C[C@@H]1CN([C@@H](C)CO)C(=O)c2cccc(NS(C)(=O)=O)c2O[C@H]1CN(C)Cc1ccc(C(=O)O)cc1
→ -5% | i
CC(O)CNc1ccc([N+](=O)[O-])cc1S(=O)(=O)N1CCOCC1 (stereo not given)
→ -14% | i
Cc1ccc(C(=O)NCc2ccccc2CN2CCCC2)cc1S(=O)(=O)N1CCOCC1
→ -9% | i
O=C1c2ccccc2NC(c2ccccc2Cl)N1N=C1CCCCCC1 (stereo not given)
→ -6% | -12%
O=C(CC1CC2CCC1C2)N1CCN(S(=O)(=O)c2ccccc2F)CC1 (stereo not given)
→ -11% | -24%
NC(=S)N=Nc1c(O)[nH]c2ccccc12
→ ? | 13µM*
N/C(=N/O)c1nc(N2CCCC2)nc(N(c2ccccc2)c2ccccc2)n1
→ -16% | -13%
COc1ccccc1-c1ccnc2c(-c3ccc(Br)cc3)c(C)nn12
→ -5% | -15%
Cc1cc(C)cc(C(O)c2ncc(-c3ccc(Cl)cc3)[nH]2)c1 (stereo not given)
→ ? | -12%
CC(=O)c1ccc(OCC(=O)N2CCN(S(=O)(=O)c3ccc(Br)s3)CC2)cc1
→ -21% | i
CCCC(=O)Nc1nc2c(c(=O)[nH]1)CCCC2
→ -6% | -13%
CN(C(=O)c1cc(-n2cnnc2)ccc1Cl)c1ccccc1
→ -20% | -12%
CC1CN(S(=O)(=O)c2ccc(-c3nc4ccccc4s3)cc2)CC(C)O1 (stereo not given)
→ 1% | -11%
O=C(/C=C/c1ccc2ccccc2c1)c1ccoc1
→ 7% | /
Cc1ccc(SCc2cc(=O)[nH]c(N3CCN(C)CC3)n2)cc1
→ -20% | /
COc1ccc(CCC(=O)OCC(=O)Nc2ccc(OC)c(OC)c2)cc1OC
→ -7% | -17%
CC(=O)c1ccc(O)c(CSc2nncn2C)c1
→ -8% | i
CCOc1ccc(C(=O)Nc2c(C(=O)c3ccccc3)oc3ccccc23)cc1
→ -8% | -8%
CCc1nc2ccc(C(=O)N3CCN(C(=O)c4ccco4)CC3)cn2c1N(C)C(=O)Nc1ccccc1OC
→ 10% | 41%[activator]
CC(C)(C)C(O)CN1CCCC1 (stereo not given)
→ -25% | -21%
COC(=O)c1c(NC(=O)Cc2coc3ccc(C(C)C)cc23)sc2c1CCC2
→ 3% | -9%
CC(OC(=O)c1ccc(Cl)cc1O)C(=O)NCCC1=CCCCC1 (stereo not given)
→ -10% | i
CSCC(=O)N1CCCC(C(=O)c2cc(F)ccc2F)C1 (stereo not given)
→ -2% | -5%
Cc1cc(C(=O)NC2CCCc3c2cnn3-c2cccc(C)c2C)no1 (stereo not given)
→ 2% | ?
O=S(=O)(NCCS(=O)(=O)N1CCN(c2ccc(F)cc2)CC1)c1ccccc1
→ -23% | -24%
O=C(CN1CCC(C(=O)c2ccc(F)cc2)CC1)Nc1ccccc1Cl
→ -11% | -5%
Cc1noc(NS(=O)(=O)c2ccc(NC(=O)c3cc4ccccc4o3)cc2)c1C
→ -4% | -12%
O=C(NCCc1ccccc1)c1[nH]c(C(F)(F)F)nc1-c1ccccc1
→ -1% | 42%[activator]
Cc1ccc2c(c1)OC(=O)CC2c1ccccc1 (stereo not given)
→ -16% | -9%
CCOC(=O)Cc1c(C)nc2c(-c3ccccc3)c(C)[nH]n2c1=O
→ -5% | -11%
Cc1cccc(C(=O)Nc2cccc(-c3ccc4nncn4n3)c2)c1
→ 3% | i
O=C(NCc1cccs1)C1CCC(CNS(=O)(=O)c2cccc3nsnc23)CC1 (stereo not given)
→ -25% | -2%
O=C(O)C1C2CCCCC2=C2CCCCC2C1C(=O)Nc1nccs1 (stereo not given)
→ -6% | -20%

Given tab-delimited: entries from further up.
canonical_smiles	VACV Venus inh	Vaccinia mCherry
CC(OC(=O)c1ccc(Cl)cc1O)C(=O)NCCC1=CCCCC1 (stereo not given)	-10%	i
CC(C)(C)C(O)CN1CCCC1 (stereo not given)	-25%	-21%

Later entries.
Order of results – VACV Venus inh | Vaccinia mCherry
C=CCC(Nc1ccccc1)C12C=CC(O1)C(C(=O)OC)=C2C(=O)OC (stereo not given)
→ -24% | -13%[1.46 µM]
Cc1nc2sc3c(NCc4ccco4)ncnc3c2c2c1COC(C)(C)C2
→ -17% | ?
CC(=O)c1ccc(OCC(O)CN2CCCC(C)C2)cc1 (stereo not given)
→ 3% | 27%
COc1ccc(/C(N)=N/OC(=O)CCCN2C(=O)c3ccccc3C2=O)cc1OC
→ 1% | 0%
COc1ccc(C(C(=O)NCC2CCCO2)N(C(=O)c2snc(C(N)=O)c2N)c2ccccc2)cc1OC (stereo not given)
→ -1% | -17%
CCCC1=Nc2cc(C(=O)NCCc3ccc(OC)cc3OC)ccc2Sc2ccccc21
→ ? | ?
O=C(CN1CC=C(c2ccccc2)CC1)NC(=O)NC1CCCCC1
→ -6% | -4%
Cc1ccc(S(=O)(=O)CC(=O)Nc2nc(C(C)(C)C)cs2)cc1
→ -7% | -13%
Nc1nnc(SCc2coc(-c3ccc(Cl)cc3)n2)s1
→ ? | /
COc1ccccc1N1CCN(/N=C/c2cc(OC)c(O)c(OC)c2)CC1
→ -1% | i
CC1(C)CN(c2cccc(Br)c2)C1=O
→ -14% | i
O=C(Nc1ccc(F)c(Cl)c1)c1cc(C2CCCN(C(=O)CCc3ccccc3)C2)on1 (stereo not given)
→ -3% | -13%
O=C(CSc1nnc(CNC(=O)c2ccccc2F)o1)NC1CCCC1
→ -12% | i
COc1ccc(-c2ccc(/C=C3/C(=N)N4C(C)=CSC4=NC3=O)o2)c([N+](=O)[O-])c1
→ 54%[activator] | -10%
Cc1nc2c(nnn2Cc2ccccc2)c(=O)n1-c1ccccc1
→ 1% | -6%
COc1cccc(C2/C(=C(\O)c3ccc4c(c3)OCCO4)C(=O)C(=O)N2Cc2cccnc2)c1 (stereo not given)
→ -2% | -5%
CC(=O)c1cccc(NC(=O)C2CC(=O)N(C3CCCC3)C2)c1 (stereo not given)
→ -3% | -11%
CCn1c(SC(C)C(=O)Nc2ccc(N3CCOCC3)cc2)nnc1-c1ccco1 (stereo not given)
→ 3% | -8%
O=C1C=C(c2cccc(Br)c2)C[C@@H](c2ccc(Cl)cc2)C1
→ -17% | -8%
CC#CC#Cc1cccc(=O)o1
→ -20% | -19%
O=C(O)CC1(C(=O)O)CCCC1
→ -12% | i
Cc1ccc2ncc(C(=O)NCCc3ccc(S(N)(=O)=O)cc3)c(=O)n2c1
→ 1%[7.34 µM] | -1%[7.34 µM]
O=C(CSc1ncc2c(n1)-c1ccccc1N(Cc1ccc(F)cc1)S2(=O)=O)c1ccc(Cl)cc1
→ -9% | -18%
COC(=O)c1ccc(N2CCOCC2)c(NC(=O)c2ccc3c(c2)OCO3)c1
→ -4% | -1%
COc1cccc(C(=O)NCCSc2c(-c3ccc(F)cc3)[nH]c3ccccc23)c1OC
→ -16% | -11%
Cc1nc(SCC(=O)N2CCC(Cc3ccccc3)CC2)[nH]c(=O)c1C
→ -16% | i
CCCN1C(=O)C2(c3ccccc31)c1c(oc3cc(C)c(C)cc3c1=O)C(=O)N2CCCOC (stereo not given)
→ -9% | -7%
CNC(=O)N(O)C1N(/N=C/c2ccccc2O)C(=S)SC1(C)C (stereo not given)
→ -10% | ?
CC(=O)O/N=C/c1c(C)c(C=O)n2ccccc12
→ 6% | 4%
CC(C)CN1CCC(=O)N([C@H](CSc2ccc(Br)cc2)Cc2ccccc2)CC1
→ ? | i
S=C(NCc1cccs1)Nc1ccc(Cl)cc1
→ -18% | -8%
CCOC(=O)C1(Cc2ccccc2)CCCN(Cc2ccccn2)C1 (stereo not given)
→ -8% | -3%
O=C(CSc1nc2ncccc2[nH]1)NC1CCCC1
→ 13% | 5%
Cc1ccc(S(=O)(=O)N2CCCC2)cc1C(=O)NCc1ccccn1
→ -20% | -2%
CC(=O)N(Nc1ccccc1)c1ccccc1
→ -6% | -3%
COC(=O)/C(=C/N(C)C)C(=O)N1CCN(c2ccc(Cl)c(Cl)c2)CC1
→ -6% | -8%
CCCCN(C)C(=O)Cc1c(OC)ccc2cc(Br)ccc12
→ 0% | -13%
O=C1CCCCC1C(Nc1ccc(Cl)cc1)c1ccccc1 (stereo not given)
→ -26% | /
COc1ccc(CCC(=O)NCc2nc3cccnc3n2Cc2cccc(OC)c2)cc1
→ -13% | -15%
FC(F)(F)c1ccc(C2[C@H]3CN(CC4CCCCC4)[C@H](c4ccccc4)C34CC2(c2cccnc2)C4)cc1 (stereo not given in full)
→ -7% | -15%
CSCC[C@H](NS(=O)(=O)c1ccc(C)cc1)C(=O)N1CCC(C(=O)N[C@@H](Cc2ccc(O)cc2)C(=O)O)CC1
→ ? | -25%
COc1ccc(CNC(=O)c2cc3ccccc3o2)cc1OC
→ -17% | 2%
O=P(Oc1ccccc1)(N1CCOCC1)N1CCOCC1
→ -15% | i
O=C(C1=C(O)C(=O)N(CC2CCCO2)C1c1cccc(Cl)c1)c1ccco1 (stereo not given)
→ -13% | i
O=C(COC(=O)c1ccc2ncsc2c1)NC(=O)C1CCCCC1
→ -14% | -9%
Cc1ccc(Nc2nc(C)cc(C)c2C(N)=O)cc1
→ -11% | -16%
Cc1noc(C)c1C(=O)N1CCC1(C)C(=O)NS(=O)(=O)c1ccccc1C(F)(F)F (stereo not given)
→ -7% | 15%

13 structures already listed, arranged by formula weight, low to high:
Order of results – VACV Venus inh | Vaccinia mCherry
CC(=O)N(Nc1ccccc1)c1ccccc1
→ -6% | -3%
Cc1ccc(Nc2nc(C)cc(C)c2C(N)=O)cc1
→ -11% | -16%
O=C(CSc1nc2ncccc2[nH]1)NC1CCCC1
→ 13% | 5%
S=C(NCc1cccs1)Nc1ccc(Cl)cc1
→ -18% | -8%
COc1ccc(CNC(=O)c2cc3ccccc3o2)cc1OC
→ -17% | 2%
O=P(Oc1ccccc1)(N1CCOCC1)N1CCOCC1
→ -15% | i
O=C1CCCCC1C(Nc1ccc(Cl)cc1)c1ccccc1 (stereo not given)
→ -26% | /
CCOC(=O)C1(Cc2ccccc2)CCCN(Cc2ccccn2)C1 (stereo not given)
→ -8% | -3%
O=C(COC(=O)c1ccc2ncsc2c1)NC(=O)C1CCCCC1
→ -14% | -9%
Cc1ccc(S(=O)(=O)N2CCCC2)cc1C(=O)NCc1ccccn1
→ -20% | -2%
O=C(C1=C(O)C(=O)N(CC2CCCO2)C1c1cccc(Cl)c1)c1ccco1 (stereo not given)
→ -13% | i
COc1ccc(CCC(=O)NCc2nc3cccnc3n2Cc2cccc(OC)c2)cc1
→ -13% | -15%
Cc1noc(C)c1C(=O)N1CCC1(C)C(=O)NS(=O)(=O)c1ccccc1C(F)(F)F (stereo not given)
→ -7% | 15%
